GLS inhibitor: glutaminase GLS (human) inhibition. GLS enzymatic activity, qHTS titration. O94925. 0.21% of 410,000 active. Potency, µM (top dose mostly 45.5 µM), for inactives: at the highest dose activity change, negative = inhibition, actives largely listed as inhibitors. AID 624170; further: on the % scale 0 is the no-effect control and ±100 the full control effect
Target sequence (O94925 whole entry, looked up): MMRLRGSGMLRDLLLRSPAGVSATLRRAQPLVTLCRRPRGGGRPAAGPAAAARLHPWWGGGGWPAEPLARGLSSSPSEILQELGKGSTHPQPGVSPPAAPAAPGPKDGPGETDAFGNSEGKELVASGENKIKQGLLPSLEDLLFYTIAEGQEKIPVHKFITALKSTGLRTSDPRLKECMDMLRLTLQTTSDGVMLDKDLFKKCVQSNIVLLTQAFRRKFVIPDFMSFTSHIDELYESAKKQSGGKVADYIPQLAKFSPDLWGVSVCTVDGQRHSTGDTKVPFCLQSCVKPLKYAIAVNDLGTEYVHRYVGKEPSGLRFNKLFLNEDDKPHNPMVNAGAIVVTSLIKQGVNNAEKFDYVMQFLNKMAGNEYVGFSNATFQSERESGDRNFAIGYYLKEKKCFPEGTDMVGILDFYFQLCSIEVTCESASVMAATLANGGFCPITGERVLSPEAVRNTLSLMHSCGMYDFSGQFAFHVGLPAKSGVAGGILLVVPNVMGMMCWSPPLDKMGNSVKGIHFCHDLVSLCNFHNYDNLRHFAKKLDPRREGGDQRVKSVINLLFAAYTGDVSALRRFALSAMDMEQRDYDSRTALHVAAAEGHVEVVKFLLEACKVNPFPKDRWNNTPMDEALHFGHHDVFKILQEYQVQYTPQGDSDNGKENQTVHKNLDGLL
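Two-point fluorescence kinetic (t0, 30 min RT) for hKGA; glutamate detected via glutamate oxidase–HRP–Amplex Red. Substrate: 1 mM L-glutamine solution; buffer 45 mM KH2PO4, pH 8.2.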
Pin1 inh: human Pin1 inhibition | 0.009% of 390,000 active | Pin1 FP peptide displacement, HiFluor488, 10 min | Potency, µM (highest dose often 115 µM), for inactives: at the top dose activity, negative = inhibition, hits mostly inhibitors; active means well fitted inhibition curve with a large enough effect in the polarisation, with a control signal flat, not every such curve was filed as active; inconclusive means small, poorly fitted or top-dose-only effect, or effect the other way, or a change in a side signal; inactive means no such curve, though single readings can be large or run the other way; the % refers to the polarisation; further: on the % scale 0 is the no-effect control and ±100 the full control effect
Target sequence (Q13526 whole entry, looked up): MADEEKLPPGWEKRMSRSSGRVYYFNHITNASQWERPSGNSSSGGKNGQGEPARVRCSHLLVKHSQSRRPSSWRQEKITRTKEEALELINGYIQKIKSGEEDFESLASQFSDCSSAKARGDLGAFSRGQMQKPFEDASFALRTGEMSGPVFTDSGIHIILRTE
RGS4 inhibitor: blocks human RGS4-accelerated GTP hydrolysis; P49798; Transcreener GDP fluorescence polarization, RGS4-accelerated GTP hydrolysis; Potency, µM (top dose mostly 114 µM), for the others: at the highest dose activity change, negative = inhibition, usual class: inhibitors; 0.039% of 390,000 active; AID 504845; further: on the % scale 0 is the no-effect control and ±100 the full control effect; nearly all actives have a fitted effect of over 75% in size; some results filed as inactive show a strong effect at the top dose
Target sequence (P49798 whole entry, looked up): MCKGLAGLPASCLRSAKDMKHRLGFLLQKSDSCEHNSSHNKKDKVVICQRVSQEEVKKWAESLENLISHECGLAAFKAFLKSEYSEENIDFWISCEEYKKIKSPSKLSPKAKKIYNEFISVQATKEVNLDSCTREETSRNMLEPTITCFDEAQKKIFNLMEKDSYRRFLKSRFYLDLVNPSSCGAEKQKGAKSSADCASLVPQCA
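MLSMR compounds (23 nl, pin-transferred) preincubated 10 min at room temperature with a 500nM (2x) first reagent, then RGS4 at 900nM (2x) plus Transcreener GDP mix added; fluorescence polarization (620/688 nm) read before and after 90 min at 30 °C.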
PGK inhibitor: blocks T. brucei phosphoglycerate kinase. P07378. 0.043% of 380,000 active. Potency, µM (doses to about 57.5 µM), for the others: at the top dose activity change, negative = inhibition, hits mostly inhibitors. AID 602233. PGK/GAPDH coupled, Kinase-Glo luminescence, 60 min; further: on the % scale 0 is the no-effect control and ±100 the full control effect; nearly all actives have a fitted effect of over 60% in size
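Recombinant glycosomal PGK reaction used 1,3-bisphosphoglycerate generated in-well by GAPDH (100nM final) in 100mM TEA pH 7.6, 5mM MgCl2, 0.01% Tween-20. After 60 minutes at room temperature, ATP was read by Kinase-Glo Plus luminescence end-point.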
12-LOX inh: inhibitors of human 12S-lipoxygenase ALOX12 | P18054 | purified 12hLO, xylenol orange hydroperoxide absorbance | Potency, µM (doses to about 108 µM), for the others: top-dose activity change, negative = inhibition, most hits filed as inhibitors | 1.1% of 580,000 active | AID 1671190; further: on the % scale 0 is the no-effect control and ±100 the full control effect
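Hydroperoxide product was detected by ferrous iron/xylenol orange as the 573 to 405 nm absorbance ratio. Arachidonic acid at 40 uM (final) was turned over for 30 min at room temperature by 150 nM human 12hLO, pH 7.0 Hepes buffer, after 15 min compound preincubation.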
ERG-DNA inh: blocks human ERG Ets domain binding to DNA; P11308; fluorescence polarization, His-ERG Ets domain / labelled DNA; Potency, µM (titrated, usually from 76.9 µM), without a hit: top-dose FP activity, negative = inhibition, actives largely listed as inhibitors; 0.028% of 370,000 active; AID 624246; active means well fitted inhibition curve with a large enough effect in the polarisation, with a control signal flat; inconclusive means small, poorly fitted or top-dose-only effect, or effect the other way, or a change in a side signal; inactive means no such curve, though single readings can be large or run the other way; the % refers to the polarisation;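 further: polarization taken with two DNA probes labelled with fluorescein and Texas red; % of control where 0% means no effect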
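His-tagged ERG Ets domain (1 uM in the protein solution; 300mM KCl, 50mM Tris-HCl, 1mM EDTA, 1mM DTT, pH 7.5) received compound, then a probe mix of 5 nM fluorescein-DNA and 100nM Texas-615-DNA. Fluorescence polarization was read for both dyes.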
TrxR1 inh: blocks rat thioredoxin reductase 1; Potency, µM (titrated, usually from 114 µM), for the others: at the top dose activity change, negative = inhibition, usual class: inhibitors; O89049; 1% of 390,000 active; recombinant rTrxR1, NADPH fluorescence consumption, selenite substrate; AID 588453; further: on the % scale 0 is the no-effect control and ±100 the full control effect; nearly all actives have a fitted effect of over 65% in size
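Rat TrxR1 (90 nM in the dispensed reagent) was pre-reduced with 400 uM NADPH for 5 min at room temperature, then incubated with compound for 15 min. After 400 uM selenite was added, NADPH fluorescence (Ex 340/Em 450 nm) was followed for 8 min.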
* = called active by the depositor; i = inactive; ? = inconclusive; nt = no result given; & = joins results of further samples; [ ] = another dose, or the depositor's remark. Unless noted, the call rests on the fitted dose curve; in most records, active means well fitted curve in the direction sought with a large enough effect; inconclusive means small, poorly fitted or top-dose-only effect, or another doubt; inactive means no such curve, though single readings can be large; an effect the other way counts as inactive or inconclusive. Potency means the concentration at half of the fitted maximal effect.

| entry | SMILES | PGK inhibitor | TrxR1 inh | GLS inhibitor | ERG-DNA inh | Pin1 inh | RGS4 inhibitor | 12-LOX inh |
| --- | --- | --- | --- | --- | --- | --- | --- | --- |
| 1 | O=C(c1cccnc1)N1CCN(Cc2ccccc2Br)CC1 | -14% | 10%[57.1 µM] | -12% | 7% | -7% | 17% | ? |
| 2 | CCOc1ccc(N2C(=O)C(Cl)=C(Nc3ccccc3O)C2=O)cc1 | -13% | ? | 25% | nt | 12% | ? | ? |
| 3 | CCC(NS(=O)(=O)c1ccc2c(c1)NC(=O)C(C)C(=O)N2)c1cccs1 (stereo unspecified) | -2% | 1%[57.1 µM] | 0% | 3% | 1% | -9% | -3% |
| 4 | O=C(Nc1cccc(Cl)c1)N1CCCC1 | -10% | -5% | ? | 5% | -2% | -106%[56.9 µM] | 3% |
| 5 | O=C(CNC1CCCCCC1)Nc1ccccc1N1CCOCC1 | 0% | 11% | 5% | -10% | -6% | -4% | -20% |
| 6 | Cc1ccc(S(=O)(=O)C(C#N)c2nc3ccccc3nc2N2CCN(C)CC2)cc1C (stereo unspecified) | -3% | -5% | nt | 8% | 73% | 13% | ? |
| 7 | CCN(CC)CCOc1ccc(Br)cc1 | nt | 15%[57.1 µM] | 3% | nt | -7% | 25% | ? |
| 8 | CCC(C)c1ccc(S(=O)(=O)N2CCN(CC(O)COCC3CCCO3)CC2)cc1 (stereo unspecified) | -2% | 8% | 4% | -3% | -4% | 24% | ? |
| 9 | C[C@H](NC(=O)c1[nH]cnc1C(=O)Nc1nccs1)c1ccccc1 | -10% | 8% | -4% | -7% | -6% | 1% | 13% |
| 10 | CCOC(=O)N1CCN(Cc2nc(N)nc(Nc3ccc(Cl)cc3)n2)CC1 | 8% | 5%[57.1 µM] | 2% | 2% | 0% | 7% | 3% |
| 11 | NC(=O)c1ccc(NC(=O)CSc2nnc(-c3ccccn3)n2N)cc1 | -8% | 18% | -18% | -2% | -2% | -3%[56.9 µM] | 17% |
| 12 | CC(C)OC(=O)CSc1nnc(-c2ccc(O)cc2)n1Cc1ccccc1 | -3% | 12%[57.1 µM] | 8% | -1% | -3% | 12% | -11% |
| 13 | CC(=O)Nc1nnc(COc2ccc(Cl)cc2)s1 | i | 9%[57.1 µM] | 6% | 1% | 12% | -5% | 16% |
| 14 | COc1ccc(C(=O)NCC(c2cccs2)N2CCc3ccccc32)cc1OC (stereo unspecified) | -11% | 1%[57.1 µM] | 9% | 8% | -2% | -3% | ? |
| 15 | CC(OC(=O)Cc1c[nH]c2ccccc12)C(=O)Nc1ccccc1[N+](=O)[O-] (stereo unspecified) | i | 3%[57.1 µM] | -13% | 3% | 1% | -19% | 1% |
| 16 | CN(C)CCCCOc1cccc(Br)c1 | -2% | 0% | -2% | -1% | -3% | -10% | ? |
| 17 | CCC/C(O)=C1\C(=O)CC(C)(C)CC1=Nc1cccc([N+](=O)[O-])c1 | -8% | 3% | 11% | 8% | 0% | 3%[56.9 µM] | ? |
| 18 | COC(=O)C1=NN(c2ccccc2OC)C2C(=O)N(c3ccccc3OC)C(=O)C12 (stereo unspecified) | -8% | ? | 16% | nt | -3% | 34% | -14% |
| 19 | Cc1cccc(NC(=O)CN2C(=O)S/C(=C\c3cccn3-c3cccc(C(=O)O)c3)C2=O)c1 | -18% | 5%[57.1 µM] | -10% | 4% | nt | -26% | ? |
| 20 | Cc1ccc(-n2cnc3cc(NCc4cccs4)ccc32)cc1 | -4% | 3% | 8% | -6% | -17% | 4% | ? |
| 21 | CCOC(=O)C1CCN(C(=O)c2ccc3c(c2)NC(=O)/C(=C/c2ccccc2)S3)CC1 | 3% | 4% | 6% | 0% | 29% | 18% | 4% |
| 22 | CCN(CC(=O)Nc1ccc(NC(C)=O)cc1)CC(=O)Nc1ccc(Cl)c(Cl)c1 | 0% | 18%[57.1 µM] | -6% | -2% | -5% | -15% | -11% |
| 23 | Cn1c(-c2cccc(Br)c2)cnc1NCc1cccnc1 | i | 2% | -3% | -13% | -13% | -34% | -9% |
| 24 | CN=C(c1ccco1)n1c(=S)nc(-c2ccco2)n(C)c1=S | -6% | ? | 15% | 0% | ? | ? | -20% |
| 25 | CCCCCn1ccc(=O)c2c(C(F)(F)F)nccc21 | -7% | 2% | 3% | -7% | 0% | -1% | 0% |
| 26 | COc1ccc(N2C(=O)CC(Sc3n[nH]c(-c4cccc(C)c4)n3)C2=O)cc1 (stereo unspecified) | -6% | ? | -14% | 27% | -2% | ? | 0% |
| 27 | O=C1CC(=C(c2ccccc2)c2ccccc2)C(=O)N1CCCCN1CCN(c2ccccc2)CC1 | 0% | 66%[0.457 µM] | -9% | -21% | 3% | -35% | 40µM* |
| 28 | CC(=O)c1ccc(N2CCN(CC(O)COCc3ccco3)CC2)cc1 (stereo unspecified) | nt | -4% | -8% | -1% | -6% | -21% | -28% |
| 29 | Cc1ccc(-n2ncc3c(NCc4ccccn4)ncnc32)c(C)c1 | -1% | -5% | -3% | 4% | 8% | -16% | -1% |
| 30 | Cc1ccc([N+](=O)[O-])c(OCCCN2CCCCCC2)c1 | nt | 9% | 20% | 2% | -6% | -9% | -18% |
| 31 | Cc1cccc(Nc2nc(N)nc(CN3CCN(C)CC3)n2)c1 | -2% | -4%[57.1 µM] | 0% | -2% | -9% | 10% | 9% |
| 32 | CC(C)Oc1ccc(OCCCN2CCCCCC2)cc1 | 4% | -19% | 21% | 2% | 4% | -25% | 0.45µM* |
| 33 | CCOC(=O)N1CCN(CC(=O)N2c3ccccc3CCc3ccccc32)CC1 | -1% | 5% | 1% | -4% | 2% | 9% | -20% |
| 34 | COc1ccc(-c2cnc(NCc3cc4c(cc3[N+](=O)[O-])OCO4)n2C)cc1 | -10% | -15% | 5% | nt | -17% | -17% | ? |
| 35 | O=[N+]([O-])c1ccccc1Nc1ccccc1 | -5% | 0%[57.1 µM] | 1% | 1% | -1% | -19% | -20% |
| 36 | CC(C)n1c(/C=C/[C@H](O)C[C@H](O)CC(=O)O)c(-c2ccc(F)cc2)c2ccccc21 | -4% | 22% | 7%&0% | 4% | 0% | -1% | nt |
| 37 | COc1ccc(CN2CCN(C(=O)c3cccc4ccccc34)CC2)cc1OC | -8% | 22% | 10% | -10% | 4% | 26% | 37% |
| 38 | COc1cccc(CN2CCSCC2)c1 | i | 18% | -11% | nt | -7% | 2% | -26% |
| 39 | CCOC(=O)C1CCN(CC(O)COCc2ccccc2)CC1 (stereo unspecified) | -8% | 20% | 8% | 4% | -7% | -9%[56.9 µM] | ? |
| 40 | CCOc1ccc(/C=N/n2c(C)nnc2C)cc1OC | 3% | 15% | 13% | -2% | 0% | -21% | -5% |
| 41 | Oc1ccc(N2CCN(c3nc(-c4cccs4)nc4ccccc34)CC2)cc1 | 0% | 8% | ? | -6% | -7% | -52% | ? |
| 42 | FC(F)(F)c1ccc(CN2CCCCCC2)cc1 | -5% | 20%[11.4 µM] | 2% | nt | 0% | 20% | -30% |
| 43 | Brc1cccc(CN2CCCCCCC2)c1 | nt | 16% | 4% | 0% | -3% | -8% | ? |
| 44 | Cn1c(-c2ccc(F)cc2)cnc1NCc1ccccc1 | 0% | -2% | 14% | 3% | 0% | 29% | ? |
| 45 | O=C(c1ccc([N+](=O)[O-])s1)N1CCCc2ccccc21 | -1% | ? | 3% | 0% | -2% | 1% | -15% |
| 46 | COc1ccc(CN2CCN(C(=O)CC(C)C)CC2)c2ccccc12 | -6% | -15% | 1% | 0% | -7% | -1% | -12% |
| 47 | Cn1cnc(S(=O)(=O)N2CCCC(C(=O)NCc3ccccc3)C2)c1 (stereo unspecified) | i | 11%[57.1 µM] | 1% | 12% | -6% | 6% | -2%&-17% |
| 48 | CN1C(=O)C2C(c3ccc(N(C)C)cc3)=NN(Cc3ccccc3)C2C1=O (stereo unspecified) | i | 2%[57.1 µM] | 7% | -3% | 14% | -4% | -4% |
| 49 | O=C(Cc1ccccc1)Nc1nnc(-c2ccccc2)o1 | -3% | 15% | 2% | -9% | -3% | -9% | -4% |
| 50 | N#C/C(=C(/O)CCl)c1nc2c(s1)CCc1ccccc1-2 | -4% | ? | -27% | 14% | 18% | ? | 16µM* |
| 51 | CCOC(=O)c1sc(NC(=O)c2ccc(OC)cc2)nc1C | i | -10% | 0% | 4% | 1% | -7% | ? |
| 52 | O=[N+]([O-])c1ccccc1S(=O)(=O)N1CCN(Cc2ccsc2)CC1 | 5% | -10%[57.1 µM] | 0% | 4% | -6% | 13% | -19% |
| 53 | Cc1cc(C)c2sc(N(CCN(C)C)C(=O)c3c(F)cccc3F)nc2c1 | -5% | 9% | 6% | 1% | 2% | 13% | ? |

7 records picked at random from those above, as already listed:
| entry | SMILES | PGK inhibitor | TrxR1 inh | GLS inhibitor | ERG-DNA inh | Pin1 inh | RGS4 inhibitor | 12-LOX inh |
| --- | --- | --- | --- | --- | --- | --- | --- | --- |
| 26 | COc1ccc(N2C(=O)CC(Sc3n[nH]c(-c4cccc(C)c4)n3)C2=O)cc1 (stereo unspecified) | -6% | ? | -14% | 27% | -2% | ? | 0% |
| 32 | CC(C)Oc1ccc(OCCCN2CCCCCC2)cc1 | 4% | -19% | 21% | 2% | 4% | -25% | 0.45µM* |
| 40 | CCOc1ccc(/C=N/n2c(C)nnc2C)cc1OC | 3% | 15% | 13% | -2% | 0% | -21% | -5% |
| 47 | Cn1cnc(S(=O)(=O)N2CCCC(C(=O)NCc3ccccc3)C2)c1 (stereo unspecified) | i | 11%[57.1 µM] | 1% | 12% | -6% | 6% | -2%&-17% |
| 36 | CC(C)n1c(/C=C/[C@H](O)C[C@H](O)CC(=O)O)c(-c2ccc(F)cc2)c2ccccc21 | -4% | 22% | 7%&0% | 4% | 0% | -1% | nt |
| 51 | CCOC(=O)c1sc(NC(=O)c2ccc(OC)cc2)nc1C | i | -10% | 0% | 4% | 1% | -7% | ? |
| 43 | Brc1cccc(CN2CCCCCCC2)c1 | nt | 16% | 4% | 0% | -3% | -8% | ? |

The list is partial (hit frequency here may not be typical).
